# Screening results as filed in PubChem.
# Six1-Eya2 blk: blocks human Six1 binding to Eya2 | AlphaScreen GST-Six1/His-Eya2 binding, biochemical; hits give low values; control for the full effect not named in the record | activity change, % (concentration not given with the values) | hit rate 0.56% among 360,000; in the data active = activity change below about -65%; inconclusive = about -30% to -65%; inactive = above about -30%; note: % is set by controls: 0 for no effect and ±100 for the full control effect
#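 GST-Six1 + His-Eya2 (5X stock: 250/500 nM); Tris pH 8.0, 300 mM NaCl, 0.05% BSA, 0.02% Tween 20; GSH donor/Ni acceptor beads; 1 h 37 °C dark; AlphaScreen readout.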
# D2 PAM: positive allosteric modulators of human D2 dopamine receptor; DiscoveRx D2 beta-arrestin cells, luminescence, 90 min; 100% = 57 uM dopamine signal; potentiation, % (test concentration not listed); hit rate 0.23% among 360,000; AID 624464; active = potentiation of 50% or more; inconclusive = 30% to 50%; inactive = 30% or less;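 note: compound concentration not given in the record; tested on top of an EC20 dose of dopamine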
# Target sequence (P14416 whole entry, looked up): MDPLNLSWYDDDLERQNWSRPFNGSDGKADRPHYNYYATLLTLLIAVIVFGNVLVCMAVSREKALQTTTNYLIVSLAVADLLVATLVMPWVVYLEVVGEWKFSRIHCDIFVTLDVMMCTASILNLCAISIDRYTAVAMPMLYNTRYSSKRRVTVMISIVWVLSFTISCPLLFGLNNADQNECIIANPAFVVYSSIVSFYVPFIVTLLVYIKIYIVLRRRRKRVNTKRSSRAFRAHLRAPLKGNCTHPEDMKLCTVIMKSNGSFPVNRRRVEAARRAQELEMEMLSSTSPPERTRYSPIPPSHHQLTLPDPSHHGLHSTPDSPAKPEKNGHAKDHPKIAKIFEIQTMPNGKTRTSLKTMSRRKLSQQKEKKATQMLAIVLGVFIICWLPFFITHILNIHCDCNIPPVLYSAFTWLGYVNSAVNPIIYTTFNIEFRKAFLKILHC
#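 PathHunter beta-arrestin assay in DiscoveRx D2 cells. Compounds were added with an EC20 of dopamine (50 nM final) for 90 min at 37 deg C. Luminescence was read 1 h after detection reagent, with 57 uM dopamine as the EC100 control.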
# TRPML1 inh: human mucolipin-1 channel inhibition; TRPML1-inducible cells, Ca2+ dye fluorescence, FDSS; hits give low values; inhibition of EC80 agonist-evoked calcium signal; AID 624415; hit rate 0.02% among 390,000; Q9GZU1; activity change, negative = inhibition, % (concentration not given with the values); in the data active means activity change below about -50%; inconclusive means about -30% to -50%; inactive means above about -30%;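 note: stimulus is agonist 54-4 at its EC80 concentration; % is set by controls: 0 for no effect and ±100 for the full control effect; compound concentration not given in the record; the text of the record puts the active cut at -80%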
# Target sequence (Q9GZU1 whole entry, looked up): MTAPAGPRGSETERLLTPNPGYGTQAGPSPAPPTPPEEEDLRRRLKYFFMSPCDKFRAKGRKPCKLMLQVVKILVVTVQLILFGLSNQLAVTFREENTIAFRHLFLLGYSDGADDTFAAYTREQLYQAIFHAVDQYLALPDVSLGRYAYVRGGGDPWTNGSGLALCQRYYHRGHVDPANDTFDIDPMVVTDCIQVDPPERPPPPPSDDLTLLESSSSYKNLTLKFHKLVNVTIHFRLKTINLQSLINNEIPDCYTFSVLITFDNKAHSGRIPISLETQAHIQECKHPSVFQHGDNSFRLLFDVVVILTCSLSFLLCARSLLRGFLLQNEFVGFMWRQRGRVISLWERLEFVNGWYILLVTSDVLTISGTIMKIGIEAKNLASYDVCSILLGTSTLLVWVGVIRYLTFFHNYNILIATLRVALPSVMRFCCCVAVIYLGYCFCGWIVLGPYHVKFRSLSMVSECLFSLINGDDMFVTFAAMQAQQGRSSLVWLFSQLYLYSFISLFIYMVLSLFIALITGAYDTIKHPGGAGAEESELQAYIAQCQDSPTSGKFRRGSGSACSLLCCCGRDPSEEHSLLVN
#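 Calcium fluorescence in TRPML1-DL cells induced overnight with Tet: a 110 s read after compound pin addition, then a 110 s antagonist read after challenge with 54-4 at 4 uM final (EC80).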
# TRPML1 ag: activates the human TRPML1 channel | Q9GZU1 | TRPML1-expressing cells, Ca2+ dye fluorescence, FDSS; host cell line not named in the record; reference of the full effect not given here | activation, % (test concentration not listed) | hit rate 0.12% among 410,000 | AID 624414; in the data active = activation above about 50%; inconclusive = about 30% to 50%; inactive = below about 30%; note: 0% is about no effect; the text of the record puts the active cut at 80%
#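 Tetracycline-induced TRPML1-DL cells are seeded and incubated overnight before loading with a no-wash Ca2+ dye and quencher. Agonist activity is taken from the 110 s fluorescence read following compound pin-transfer on an FDSS, before EC80 54-4 challenge.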
# PINK1 expr mod: changes PINK1 expression; Potency, µM (doses to about 76.6 µM), inactives show at the highest dose activation (PINK1 increase), usual class: activators; PINK1 immunofluorescence, high-content cytometry, 24 h; hit rate 0.2% among 410,000; AID 624263; active = well fitted activation curve with a large enough effect; inconclusive = small, poorly fitted or top-dose-only effect; inactive = flat fitted curve, though single readings scatter; cell line not stated here;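 note: potency is the fitted concentration of half-maximal effect; % of control where 0% means no effect; nearly all actives have a fitted effect of over 65% in size; a mitochondrial uncoupler was the plate control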
#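 Measures PINK1 amount and localization on or inside mitochondria by immunofluorescence. Stable cells get compounds at 5 concentrations for 24 hours before fixation and staining; CCCP controls included.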
# D2 ag: human D2 receptor agonism in beta-arrestin assay; P14416; DiscoveRx PathHunter D2 beta-arrestin, luminescence, 90 min; 100% = 57 uM dopamine signal; activation, % (concentration not given with the values); hit rate 0.084% among 360,000; in the data active = activation above about 40%; inconclusive = about 15% to 40%; inactive = below about 15%; note: compound concentration not given in the record; the text of the record calls up to 30% inactive
#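 DiscoveRx PathHunter D2 beta-arrestin cells (2,100/well) attached overnight, then compound-stimulated 90 min at 37 C in HBSS/10 mM HEPES/0.1% Tween-20 buffer; beta-galactosidase complementation read by luminescence after 1 h at ambient temperature. Dopamine 57 uM final (EC100) as control.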
# Active calls of the source: *; ? = inconclusive; nt = no result given; [ ] = remark or other dose.
SMILES,Six1-Eya2 blk,D2 PAM,TRPML1 inh,TRPML1 ag,PINK1 expr mod,D2 ag
O=C(O/C(=C/c1ccccc1)C(F)(F)F)c1ccccc1,23,-3,-8,-0.3,24%,1.7
Cc1cc(Nc2ccc(Cl)cc2)n2nnnc2n1,-8,7,-9,-1.3,1.4%,2.4
CCCCc1c(-c2cccc(F)c2)ncn1CCc1ccccc1OC,-8,nt,nt,2.9,-1.3%,nt
NC(=O)c1ccccc1NS(=O)(=O)c1ccc2c(c1)OCCO2,7,-1,6,-0.1,nt,-2.7
Cc1ccc(OS(=O)Nc2cccc3nccnc23)cc1 (configuration not stated),-22,-15,-22,-0.3,nt,-4.4
COCc1cccc(NC(=O)Cc2cccc3ccccc23)c1,-7,-5,-9,-0.3,-0.4%,-1.8
O=C(CSc1nc2c([nH]c3ccccc32)c(=O)n1-c1ccc(Cl)cc1)N1CCc2ccccc21,nt,nt,-3,1.1,-3.2%,nt
Cc1cc(N2CCN(C)CC2)nc2ccc(NC(=O)CCC(=O)NCCC3=CCCCC3)cc12,3,0,4,-0.1,-1.1%[38.3 µM],-1.2
Cc1cccc2cc(-c3nc4ccc(C(=O)O)cc4[nH]3)c(=O)oc12,-2,-7,17,-0.2,-1.5%,2.0
CCCCNC(=S)N(Cc1ccco1)Cc1cc2cc3c(cc2[nH]c1=O)OCCO3,1,-19,19,2.6,-0.4%,2.3
COc1ccc(CN(C(=O)Cn2nnc3ccccc32)C(C(=O)NC(C)(C)C)c2ccco2)cc1 (configuration not stated),2,2,-10,-0.1,1.1%[38.3 µM],-3.0
CCN(CC)C(=O)CSc1nc(O)cc(=O)n1-c1ccccc1OC,-2,-14,-2,0.8,13%[38.3 µM],-0.2
CCc1c(O)nc(SCC(=O)Nc2ccccc2C)n(-c2ccc(C)cc2)c1=O,-2,-4,7,-0.7,-0.1%,-1.3
C=CCn1c(Cc2ccc(OC)cc2)nnc1SCC(=O)NCCc1ccccc1,3,-18,1,-0.4,2.9%[38.3 µM],-0.1
O=C(CCCCCNC(=O)c1ccccc1)N/N=C/c1ccccc1,-2,-5,-11,1.0,1.4%,4.6
O=C(c1cccc(S(=O)(=O)N2CCN(c3ccccc3)CC2)c1)N1CC=C(c2ccccc2)CC1,-3,-8,-10,1.6,1.1%,2.0
Cc1ccc(CC(NC(=O)c2ccccc2)C(=O)NC(Cc2ccccc2)C(=O)O)cc1 (configuration not stated),2,-5,-2,-0.5,0.4%,-1.8
CCOC(=O)c1cccc(NC(=O)c2cc(C)nc3c2c(C)nn3-c2ccc(C)cc2)c1,nt,nt,29,1.1,0.0%,nt
CCCNc1ncnc2c1cnn2C1CCCCO1 (configuration not stated),-2,3,-1,6.4,-2.0%,-3.2
O=C(NCc1ccccc1)c1cc(S(=O)(=O)N2CCOCC2)ccc1F,8,0,1,-0.5,0.7%,-1.1
O=C(O)CCC(=O)Nc1ccc(N=Nc2ccccc2)cc1,-3,-4,7,-0.1,0.5%,-2.8
O=C(N/C(=C\c1cccc(Br)c1)C(=O)N1CCOCC1)c1ccco1,-4,-20,6,0.0,0.4%,1.5
NC1=NC(=O)S/C1=C\c1ccc(F)cc1,3,-6,-7,-0.4,-1.1%,-5.5
Cc1ccccc1CNC(=O)c1ccc(Cn2c(SCc3ccccc3)nc3cccnc32)cc1,nt,nt,-4,2.8,0.4%,nt
O=C(NCc1ccc(/C=N\NC(=O)C(=O)Nc2ccccc2Br)o1)C(=O)Nc1ccccc1,-13,-16,12,-0.3,3.0%,-1.4
COc1cccc(C2C(C(=O)OC(C)C)=C(C)N=c3s/c(=C\c4ccc(C(=O)O)cc4)c(=O)n32)c1 (configuration not stated),-15,-3,-13,3.2,1.9%,-7.6
O=C(CN1C(=O)c2ccccc2C1=O)NCCOc1ccccc1,0,-17,-3,-0.8,-0.1%,-3.9
Cc1ccccc1NC(=O)c1cc2c(-c3ccccc3)nn(-c3ccccc3)c2s1,nt,nt,7,3.2,-1.0%,nt
CC(C)c1nc2n[nH]c(N)c2c2c1CSC(C)(C)C2,7,-11,19,1.1,0.9%,0.6
CCc1cccc(NC(=O)CN(C)S(=O)(=O)c2cnc[nH]2)c1,11,-9,6,-0.7,-0.2%,0.3

# Random excerpt: seven compounds from above.
SMILES,Six1-Eya2 blk,D2 PAM,TRPML1 inh,TRPML1 ag,PINK1 expr mod,D2 ag
CC(C)c1nc2n[nH]c(N)c2c2c1CSC(C)(C)C2,7,-11,19,1.1,0.9%,0.6
Cc1ccccc1NC(=O)c1cc2c(-c3ccccc3)nn(-c3ccccc3)c2s1,nt,nt,7,3.2,-1.0%,nt
NC1=NC(=O)S/C1=C\c1ccc(F)cc1,3,-6,-7,-0.4,-1.1%,-5.5
O=C(CN1C(=O)c2ccccc2C1=O)NCCOc1ccccc1,0,-17,-3,-0.8,-0.1%,-3.9
CCc1cccc(NC(=O)CN(C)S(=O)(=O)c2cnc[nH]2)c1,11,-9,6,-0.7,-0.2%,0.3
O=C(N/C(=C\c1cccc(Br)c1)C(=O)N1CCOCC1)c1ccco1,-4,-20,6,0.0,0.4%,1.5
O=C(O)CCC(=O)Nc1ccc(N=Nc2ccccc2)cc1,-3,-4,7,-0.1,0.5%,-2.8

# Continued:
SMILES,Six1-Eya2 blk,D2 PAM,TRPML1 inh,TRPML1 ag,PINK1 expr mod,D2 ag
Cc1ccc(S(=O)(=O)NCc2nc3cccnc3n2Cc2ccccc2Cl)c(C)c1,nt,nt,19,1.3,-0.8%,nt
Cc1nc(CN2CCCCC2)c(O)c(=O)[nH]1,-7,6,-11,1.2,0.6%,0.9
COCCC1CCCCN1C(=O)c1ccc(OC)c(OC2CCN(C(C)=O)CC2)c1 (configuration not stated),0,5,1,-0.2,0.8%,-1.3
O=C(NCc1cccnc1)c1ccc(CS(=O)(=O)c2ccc(Cl)cc2)o1,-1,-10,-4,-1.5,1.2%,-1.0
COc1ccccc1CNC(=O)CNC(=O)c1cn(-c2ccccc2OC)c(=O)c2ccccc12,5,-20,-18,-0.8,0.8%,-3.9
CCCCC(C(=O)NC1CCCC1)N(C(=O)c1snc(C(N)=O)c1N)c1ccc(C)cc1 (configuration not stated),-2,-3,7,1.1,1.1%,-5.0
O=C(N/C(=C\c1ccc2c(c1)OCO2)C(=O)N1CCOCC1)c1ccccc1Br,13,-6,-8,-1.0,1.0%,-5.1
CCN(C(=O)COC(=O)/C=C/c1nc2ccccc2s1)c1c(N)n(Cc2ccccc2)c(=O)[nH]c1=O,-1,-3,4,0.1,-1.1%,1.8
COc1cc(C2NC(=O)NC3=C2C(=O)OC3)cc(OC)c1OC (configuration not stated),0,0,nt,nt,0.1%,-2.5
CC(C)Oc1ccc(C(CC(=O)O)NC(=O)C2CCCCC2)cc1 (configuration not stated),30,-9,-5,-1.0,-0.3%,-6.0
CCOCCCNC(=O)C(c1ccccc1)N(Cc1ccc2c(c1)OCO2)C(=O)CNC(C)=O (configuration not stated),6,-7,3,0.3,2.1%,-0.2
CC1Cc2ccccc2N1C(=O)COC(=O)C1=COCCO1 (configuration not stated),11,1,-16,-0.4,-1.3%,2.7
CNC(=O)N(O)C1N(/N=C/c2cccnc2)C(=S)SC1(C)C (configuration not stated),6,2,-3,0.1,-0.2%,-0.4
COc1ccc(CNC(=O)COC(=O)c2cccc(S(=O)(=O)N3CCOCC3)c2)cc1,-4,-14,42,0.2,-1.4%,0.2
CC1(C)CC(=O)C=C(c2cn[nH]n2)C1,0,nt,nt,nt,-0.2%,-1.0
Cn1cccc1/C=N\NC(=O)C1COc2ccc(C(C)(C)C)cc2O1 (configuration not stated),?,-6,-13,0.8,4.5%,4.7
CN(C)CCCN(C(=O)c1ccco1)c1nc2ccc(Cl)cc2s1,-10,-7,4,0.3,4.9%,-2.0
COc1ccc(Nc2nc3c(S(=O)(=O)c4ccccc4)nnn3c3ccc(Cl)cc23)c(OC)c1,nt,nt,-1,-0.4,0.2%,nt
COc1ccc(NC(=O)CCc2nnc3n(C)c(=O)c4sccc4n23)cc1,nt,nt,5,-0.1,0.4%,nt
Cc1cc2nc(C3CCCN(C(=S)Nc4ccccc4)C3)[nH]c2cc1C (configuration not stated),4,-8,-1,0.0,22%[38.3 µM],-0.1
COc1ccc(NS(=O)(=O)c2cccc(C(=O)OCC(=O)NC3CC3)c2)cc1,-5,-14,-6,-0.4,0.1%,-3.7
CC(=O)c1ccc(S(=O)(=O)Nc2ccc(-n3cnnn3)cc2)cc1,0,1,-7,-0.6,0.4%,3.1
O=C(CSc1ccc(Cl)cc1)Nc1nnc(-c2ccco2)o1,?,-7,-12,1.2,-4.9%,-0.2
O=C(CSc1n[nH]c(-c2ccncc2)n1)c1cccc([N+](=O)[O-])c1,-12,12,-22,0.8,-2.9%,10
O=C(NCc1ccc(F)cc1)c1ccc(S(=O)(=O)Nc2cccc(C(F)(F)F)c2)cc1,-12,-2,-19,0.4,24%,2.9
O=C(NC1CCCC1)C(c1ccccn1)N(C(=O)c1csnn1)c1ccc(F)cc1 (configuration not stated),12,-6,-6,-0.4,-1.7%,-0.2
Cc1c(NC(=O)c2ccc(Cl)c(S(=O)(=O)N3CCOCC3)c2)c(=O)n(-c2ccccc2)n1C,-2,-5,4,3.1,5.3%[38.3 µM],-2.9
O=C(Nc1ccccc1N1CCOCC1)c1cc(-c2ccco2)nc2ccccc12,-13,16,-15,0.0,0.3%,2.4
O=C(Nc1nnc(SCc2ccccc2)s1)C1=COCCO1,0,2,1,-0.8,1.8%,-5.2
O=C(N/C(=C\c1ccccc1)C(=O)N1CCN(CCO)CC1)c1ccccc1,6,-24,-16,0.1,1.2%,0.5

# Among those listed so far, 2 have a CF3 group.
SMILES,Six1-Eya2 blk,D2 PAM,TRPML1 inh,TRPML1 ag,PINK1 expr mod,D2 ag
O=C(O/C(=C/c1ccccc1)C(F)(F)F)c1ccccc1,23,-3,-8,-0.3,24%,1.7
O=C(NCc1ccc(F)cc1)c1ccc(S(=O)(=O)Nc2cccc(C(F)(F)F)c2)cc1,-12,-2,-19,0.4,24%,2.9

# (next part)
SMILES,Six1-Eya2 blk,D2 PAM,TRPML1 inh,TRPML1 ag,PINK1 expr mod,D2 ag
CC(=O)c1cccc(NC(=S)NC(=O)CC(C)(C)C)c1,2,-8,-3,0.3,-0.3%[38.3 µM],-1.5
Nc1nc(Br)c2ccccc2c1-c1ccc(F)cc1,27,2,19,0.7,17%[38.3 µM],-1.6
CC(=O)Nc1ccccc1OCC(=O)c1cc(C)n(Cc2cccs2)c1C,-13,-3,19,?,0.7%,1.0
CCCCCn1cnc2c(=S)nc(N)[nH]c21,-11,-6,11,-0.3,2.5%,2.3
CC(=O)N1/C(=C/c2ccc(N(C)C)cc2)C(=O)c2ccccc21,-7,-24,-7,1.8,-1.3%,-5.8
Cc1cc(C)c(S(=O)(=O)Nc2cc(C)on2)c(C)c1,1,-12,47,1.1,-1.0%,-3.0
CCCN1C2CCCC1CC(NC(=O)Nc1cccc(C(C)=O)c1)C2 (configuration not stated),6,-22,-3,0.5,-2.0%,-0.4
